# Calb FLC: C. albicans growth modulation with fluconazole | C. albicans CaCi-2 (fluconazole-resistant clinical isolate) + fluconazole, Alamar Blue growth, 48 h | AID 1979 | hit rate 0.57% among 300,000 | growth inhibition, % (no concentration beside the values);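 active = most replicates above 75%; inconclusive = exactly half above 75%; inactive = most below 75%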;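 also: all wells also contain fluconazole at 8 µg/ml as a sub-toxic cotreatment; 0% = median of DMSO wells and 100% = median of geldanamycin control wells; wells of about 8 µL received 7.5 nL stock; the first replicate is given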
# LANA-H2B inh: blocks KSHV LANA binding to histone H2A/H2B. cell-free LANA-H2A/H2B peptide, fluorescence polarization. inhibition, % (concentration not given with the values). hit rate 0.6% among 320,000. AID 2629; in the data active = inhibition mostly above about 10%, no sharp cut-off; inactive = mostly below about 6.7%;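 also: stock transfer was 7.5 nL into about 10 µL; 0% = median of vehicle wells and 100% = median of positive control wells; one replicate is shown; the record names a cut of 25% in any replicate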
# Vif A3G: HIV-1 Vif–A3G interaction blockers – biochemical, TR-FRET, GST-Vif 1-94, biotin-A3G peptide, dose response retest, primary screen (AID 1117319). hit rate 0.57% among 260,000. TR-FRET GST-Vif / biotin-A3G peptide binding; higher % means a stronger effect; test concentration not given here; strong numbers were not always called active. one-dose inhibition, %; IC50 in µM for titrated hits;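 active = above the screen mean plus three standard deviations and confirmed in dose response; inconclusive = results disagree or hit not tested in dose response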;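 also: Vif residues 1-94 fused to GST binding biotinylated APOBEC3G peptide 110-148; 0% = full assay without inhibitor and 100% = GST in place of GST-Vif; retest series ran down from 100 µM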
# HNF4A DNA FP: change in binding of human HNF4 alpha to DNA | P41235 | HNF4a-FITC DNA binding, fluorescence polarization, 1 h | activity change, % at 10 µM | hit rate 0.3% among 360,000 | AID 1224865; in the data active = activity change above about 30%, passing the limit was not always enough;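 also: controls were the assay level and a saturating level of protein; the project sought stronger binding though the title names inhibitors; some compounds called inactive have numbers as strong as hits; positive values seem to mean higher polarization but the record does not say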
# Target sequence (P41235 whole entry, looked up): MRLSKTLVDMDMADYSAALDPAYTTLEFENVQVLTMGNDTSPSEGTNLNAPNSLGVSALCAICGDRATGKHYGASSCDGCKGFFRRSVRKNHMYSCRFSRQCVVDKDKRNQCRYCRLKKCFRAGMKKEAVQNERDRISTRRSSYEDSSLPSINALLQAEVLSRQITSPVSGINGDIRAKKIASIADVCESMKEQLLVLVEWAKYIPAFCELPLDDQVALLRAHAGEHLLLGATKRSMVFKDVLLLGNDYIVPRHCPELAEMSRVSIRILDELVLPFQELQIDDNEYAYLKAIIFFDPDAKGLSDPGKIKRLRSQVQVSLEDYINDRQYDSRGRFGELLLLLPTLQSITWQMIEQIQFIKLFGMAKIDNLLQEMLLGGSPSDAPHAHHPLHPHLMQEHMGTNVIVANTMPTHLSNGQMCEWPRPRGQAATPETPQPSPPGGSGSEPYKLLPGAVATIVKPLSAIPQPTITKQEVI
# RanGTP-Imp inh: inhibitors of RanGTP-importin-beta interaction, primary screen, biochemical, FRET, CFP-Ran, YFP-importin-beta, homogeneous; cell-free CFP-Ran/YFP-importin-beta FRET ratio; hit rate 1.1% among 300,000; AID 2216; inhibition, % (test concentration not listed);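 active = most replicates above 15%; inconclusive = exactly half above 15%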;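 also: 0% = DMSO wells and 100% = Ran loaded with GDP instead of GTP; wells of about 40 µL received 100 nL stock; the first replicate is given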
# Beta2AR agonist: agonists of human beta-2 adrenergic receptor inducing internalization; P07550; response, % (no concentration beside the values); hit rate 0.43% among 340,000; Am2.2-beta2AR cells, FAP receptor internalization, flow cytometry; reference of the scale not given here; AID 504454;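 active = response above a set limit, near 3 SD of response in nonfluorescent compounds, cut at about 42% in these data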;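 also: stock transfer was 100 nL into about 11 µL; a reference agonist was the positive control; negative values mostly stem from fluorescent compounds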
# Target sequence (P07550 whole entry, looked up): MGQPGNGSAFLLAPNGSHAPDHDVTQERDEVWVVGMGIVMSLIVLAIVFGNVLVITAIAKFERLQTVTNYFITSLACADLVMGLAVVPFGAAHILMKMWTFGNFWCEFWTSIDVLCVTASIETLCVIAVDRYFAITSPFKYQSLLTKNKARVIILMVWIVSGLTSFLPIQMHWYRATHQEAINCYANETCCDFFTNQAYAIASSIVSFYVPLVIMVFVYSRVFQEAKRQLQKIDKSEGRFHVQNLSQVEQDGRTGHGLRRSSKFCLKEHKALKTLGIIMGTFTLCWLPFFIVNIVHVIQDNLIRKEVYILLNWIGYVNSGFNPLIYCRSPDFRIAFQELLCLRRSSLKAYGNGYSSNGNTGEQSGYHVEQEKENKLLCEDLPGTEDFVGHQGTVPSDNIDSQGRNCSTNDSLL
# ALR inh: inhibitors of human sulfhydryl oxidase ALR; purified ALR, DTT oxidation, H2O2 HRP-luminol luminescence; inhibition, % (test concentration not listed); hit rate 3.8% among 290,000;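 active = mean and each replicate at 75% or more; inconclusive = only one of the two met; inactive = neither met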;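 also: stock transfer was 7.5 nL into about 7.5 µL; 0% = neutral wells and 100% = wells with inactivated enzyme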
# The depositor's hits bear a star; ? = inconclusive; / = not tested or not shown; & = joins results of further samples.
SMILES,Calb FLC,LANA-H2B inh,Vif A3G,HNF4A DNA FP,RanGTP-Imp inh,Beta2AR agonist,ALR inh
O=C(COc1ccccc1)Nc1ccccc1Oc1ccccc1,-8,0.5,2%,-3.5,0.2,0,-1
Cc1cc(SCCC(=O)O)nc2c(C)cccc12,-4,-1.8,0%,1.3,-1.4,7,9
COc1ncnc(NS(=O)(=O)c2ccc(N)cc2)c1OC,/,-0.4,/,1.5,/,-6,-4
COCCNC(=O)CSc1nc2cc3c(cc2c(=O)n1CCCC(=O)NCCc1ccc(OC)c(OC)c1)OCO3,14,4.1,11%,7.0,0.3,0,-45
COC(=O)C1=C(O)CSC1=Nc1ccc(C)cc1,5,0.9,2%,-4.5,-2.7,-7,4
CCCc1noc(-c2cccc([N+](=O)[O-])c2)n1,0,3.4,/,-1.2,24*,-3,-4
CCOC(=O)CNC(=O)COc1coc(CN2CCN(c3ccc(F)cc3)CC2)cc1=O,-2,8.0,/,5.4,2.1,-6,-1
COc1ccc(S(=O)(=O)Nc2cccc3c2O[C@H](CN(C)Cc2ccc(Cl)c(Cl)c2)[C@@H](C)CN([C@H](C)CO)C3=O)cc1,/,-3.6,/,1.8,/,-13,-3
O=C(c1ccccc1)C(CN1CCCCC1)c1ccccc1 (centres undefined),/,/,4%,-2.6,/,29,/
O=C(COC(=O)c1cc[n+]([O-])cc1)Nc1ccc(SC(F)F)cc1,-2,-1.3,4%,-0.7,-1.8,6,95*
COC(=O)CN1C(=O)C2(OCCCO2)c2ccccc21,-13,0.5,-7%,3.9,0.1,7,-4
N/C(=N\OC(=O)c1ccccc1)C(C(=O)NOC(=O)c1ccccc1)C1CCCCC1 (centres undefined),/,/,4%,3.4,/,22,/
COc1ccsc1NC(=O)OCc1ccc(Cl)cc1,-45,-2.2,-6%,2.5,-0.4,-1,17
C=C(C)COc1ccc(-c2nc(N)ncc2-c2ccccc2OC)c(O)c1,-18,-3.8,3%,0.6,-3.0,-6,10
O=C(N/N=C/c1ccccn1)c1sc2ccccc2c1Cl,19,0.5,/,0.4,1.0,19,-13
Cc1cccc(C)c1C(=NCCN(C)C)c1ccccc1,-2,0.3,/,-1.3,-2.2,6,3
O=C(CN1C(=O)NC2(CCc3ccccc3C2)C1=O)NCC(F)(F)F (centres undefined),-7,0.9,-2%,-0.7,3.7,4,-5
Cc1ccc(-c2csc3ncn(/N=C/N(C)C)c(=O)c23)o1,0,1.1,-5%,-1.0,3.2,-1,0
CN(C(=O)CSc1nnc(-c2cccnc2)o1)C1CCCCC1,/,1.1,-6%,0.9,/,-9,0
O=c1c2cnn(-c3ccccc3)c2nnn1/N=C/c1cccnc1,1,-3.3,6%,1.5,0.4,-2,-6
CC1CCN(S(=O)(=O)c2cc3c4c(c2)C(C)C(=O)N4CCC3)CC1 (centres undefined),6,6.6,2%,1.1,3.0,0,-2
CCCCc1cc(=O)oc2cc(C)cc(OCC(=O)O)c12,12,-2.6,3%,0.4,0.3,5,0
Cc1nccn1-c1c([N+](=O)[O-])c(=O)n(C)c2ccccc12,-4,-8.3,?,5.4,-0.2,1,25
Cc1ccccc1NC(=O)CCn1c(=O)oc2ccccc21,21,-13,29%,-0.2,4.1,14,16
CC(C)(C)n1nc2c(c1NC(=O)COc1ccc3ccccc3c1)CS(=O)C2 (centres undefined),1,0.7,1%,-1.2,-0.4,13,-28
Cc1cnc(C(=O)OCC(=O)N2CC(C)CC(C)C2)cn1 (centres undefined),/,2.5,/,-2.8,/,5,-11
Cc1nc2ccc(C(=O)N/N=C/c3ccccc3O)cc2[nH]1,8,2.9,/,-4.0,2.8,-12,18
CC(C)CCn1c(N2CCCC2)nc2c1c(=O)[nH]c(=O)n2C,15,-8.1,/,0.2,-1.7,-5,32
N#Cc1nc(-c2ccc(OCc3ccccc3Cl)cc2)oc1NCCCn1ccnc1,16,-1.0,5%,/,2.7,/,1
O=C(Cn1cccn1)N1CCCC(N2CCN(c3ccccc3F)CC2)C1 (centres undefined),-6,0.5,/,3.1,1.6,-4,7

# Next results follow.
mol	Calb FLC	LANA-H2B inh	Vif A3G	HNF4A DNA FP	RanGTP-Imp inh	Beta2AR agonist	ALR inh
COc1ccccc1-n1c(SCC(=O)N2CCOCC2)nc2cccnc21	8	-1.6	19%	-1.0	2.4	-2	-5
O=C(CCSc1nc(-c2ccco2)cc(C(F)(F)F)n1)NCC1CCCO1 (centres undefined)	-3	1.9	3%	1.8	-3.1	-5	6
O=C(Nc1nnc(-c2ccco2)s1)C1CCN(S(=O)(=O)c2ccc(Cl)cc2)CC1	?	3.5	7%&-23%	0.8	?	-6	-6
COc1ccc(C(=O)NC(=S)SCC(=O)O)cc1	2	-1.2	?	4.3	-0.6	-4	/
O=C(C1CCN(C2CCN(C/C=C/c3ccccc3)CC2)CC1)N1CCOCC1	-27	1.6	3%	6.2	3.5	0	-4
Cc1cccc(COc2ccccc2/C=N/Nc2ccc([N+](=O)[O-])cc2)c1	92*	-3.9	2%	53*	-11	1	-3
CC(=O)c1ccc(N2Cc3ccccc3C2=NC(=O)c2cccs2)cc1	-1	-4.1	10%	-2.2	4.5	-35	1
COCCn1c(SCc2nc3ccccc3s2)nc2ccccc21	8	5.2	11%	-2.3	4.0	-14	2
CC(=O)CCCCn1cnc2c1c(=O)n(C)c(=O)n2C	/	0.5	/	/	3.8	/	-7
O=C(CSc1nc(C(F)(F)F)cc(=O)[nH]1)N1CCCC1	-6	0.0	/	-1.6	0.4	-3	/
CC(C)CC(NS(=O)(=O)c1ccccc1S(=O)(=O)NC(CC(C)C)C(=O)O)C(=O)O (centres undefined)	-3	2.6	/	1.3	2.8	2	5
O=C1c2cccnc2C(Nc2cccc(F)c2)N1Cc1ccco1 (centres undefined)	44	-0.2	-1%	2.3	4.9	-1	-4
CNC(=S)Nc1ccc(Br)cc1	6	2.0	-1%	3.1	2.8	-43	/
O=C(O)C1CCC(CNS(=O)(=O)c2ccc(Cl)cc2)CC1 (centres undefined)	-2	-2.4	0%	-2.2	5.9	6	8
CCOC1=NN(c2ccccc2)C(=O)/C1=C\N(C)C	16	-9.9	7%	2.1	-0.9	-3	9

# Four entries out of the list, ordered by number of heavy atoms, smallest number first:
mol	Calb FLC	LANA-H2B inh	Vif A3G	HNF4A DNA FP	RanGTP-Imp inh	Beta2AR agonist	ALR inh
CNC(=S)Nc1ccc(Br)cc1	6	2.0	-1%	3.1	2.8	-43	/
CC(=O)c1ccc(N2Cc3ccccc3C2=NC(=O)c2cccs2)cc1	-1	-4.1	10%	-2.2	4.5	-35	1
O=C(CCSc1nc(-c2ccco2)cc(C(F)(F)F)n1)NCC1CCCO1 (centres undefined)	-3	1.9	3%	1.8	-3.1	-5	6
CC(C)CC(NS(=O)(=O)c1ccccc1S(=O)(=O)NC(CC(C)C)C(=O)O)C(=O)O (centres undefined)	-3	2.6	/	1.3	2.8	2	5

# (continued)
mol	Calb FLC	LANA-H2B inh	Vif A3G	HNF4A DNA FP	RanGTP-Imp inh	Beta2AR agonist	ALR inh
Nc1c(C(=O)Nn2cnnc2)cc([N+](=O)[O-])cc1[N+](=O)[O-]	3	-1.5	?	/	-0.4	/	-18
CCCc1nn(-c2cc(Cl)ccc2OC)c2c1C(=O)CCC2	-4	-0.9	-1%	0.0	2.1	1	-17
CCc1ccccc1N1C(=O)CC(Sc2nccc(C)n2)C1=O (centres undefined)	31	7.7	/	-1.2	2.5	-1	-4
Cc1cc(=O)oc2ccc(OC(C)C(=O)O)cc12 (centres undefined)	-3	6.2	9%	-1.6	-3.5	-4	-2
COc1ccc(CC(=O)OCC(=O)NC(=O)Nc2ccccc2F)cc1	/	0.9	-6%	-2.7	/	2	/
O=C(O)c1cn2c3c(ccc(Cl)c3c1=O)OCC2	4	1.7	-1%	-2.7	-0.4	-3	4
Cc1ccc(C2CC(=O)NC3=C2C(=O)CCC3)cc1Br (centres undefined)	2	2.7	-2%	0.0	0.6	4	6
CCCn1c(SCC(=O)Nc2ccc(NC(=O)CC)cc2)nc2c1c(=O)n(C)c(=O)n2C	-1	-2.5	/	1.4	4.5	-4	-14
CNC(=S)Nc1cccc(Cl)c1C	-7	-0.8	-3%	3.2	-0.6	3	-8
COc1cc2c(cc1O)CC[C@@H]1[C@@H]2CC[C@]2(C)[C@@H](O)CC[C@@H]12	/	-19	-6%	-1.3	2.0	-5	99*
O=C(NC(=S)Nc1ccc(O)cc1)c1cncc(Br)c1	1	-3.7	/	-2.6	-0.2	-5	99*
OCc1nnn(-c2ccccc2)c1CO	6	6.3	3%	-0.8	-4.6	-7	-12
CCOc1ccc2nc(SCC(=O)NCc3ccc(S(N)(=O)=O)cc3)[nH]c2c1	12	0.7	/	-0.6	-1.2	6	-3
CCc1ccc(C(=O)CN2C(=O)NC3(CCc4ccccc43)C2=O)cc1 (centres undefined)	/	-1.2	-12%	2.2	/	7	-2
CNC(=O)CSc1nnc(C(C)C)n1C	-7	5.0	-4%	-2.9	2.3	-8	-2

# Individual results from the results shown:
# Entry of Cc1ccc(C2CC(=O)NC3=C2C(=O)CCC3)cc1Br (centres undefined) in Beta2AR agonist: 4
# Entry of O=C(NC(=S)Nc1ccc(O)cc1)c1cncc(Br)c1 in HNF4A DNA FP: -2.6

# Ordered by the number under HNF4A DNA FP (largest number first): some entries from above.
canonical_smiles	LANA-H2B inh	Vif A3G	HNF4A DNA FP	RanGTP-Imp inh	Beta2AR agonist	ALR inh
CCCc1nn(-c2cc(Cl)ccc2OC)c2c1C(=O)CCC2	-0.9	-1%	0.0	2.1	1	-17
OCc1nnn(-c2ccccc2)c1CO	6.3	3%	-0.8	-4.6	-7	-12
COc1cc2c(cc1O)CC[C@@H]1[C@@H]2CC[C@]2(C)[C@@H](O)CC[C@@H]12	-19	-6%	-1.3	2.0	-5	99*
Cc1cc(=O)oc2ccc(OC(C)C(=O)O)cc12 (centres undefined)	6.2	9%	-1.6	-3.5	-4	-2

# The list goes on.
mol	Calb FLC	LANA-H2B inh	Vif A3G	HNF4A DNA FP	RanGTP-Imp inh	Beta2AR agonist	ALR inh
COc1ccc(OC)c(/C=N/NC(=O)c2[nH]ncc2Br)c1	-8	-2.3	5%	0.4	-2.2	-4	-2
C=CC[C@H](CC(=O)NCCO)C(=O)NC[C@@H](OC(=O)[C@@H](CC=C)Cc1ccc(F)cc1)c1ccccc1	/	2.9	/	-2.4	/	8	0
CC(NC(=S)Nc1ccc(F)cc1)C(c1cccs1)N1CCOCC1 (centres undefined)	0	0.0	/	-1.0	5.7	-4	/
COc1ccc(CNC(=O)c2ccc(C)o2)cc1	4	-0.1	-5%	2.8	-1.5	0	/
COc1ccccc1CNC(=O)c1cc(S(=O)(=O)N2CCOCC2)cn1C	-4	4.3	/	-2.4	-3.2	-9	-9
C=CCn1c(SCc2n[nH]c(=S)n2-c2ccccc2)nnc1-c1ccccc1	-6	1.3	-7%	11	4.5	4	25
COC(=O)c1ccc(N2CCN(CCNC(=O)Nc3ccc(OC)cc3)CC2)cc1	11	-0.4	/	0.1	3.4	-2	37

# Compounds as they come, and some 6.3% of all compounds hit somewhere here.
